Screening data deposited in PubChem by several laboratories.
Calb FLC: C. albicans growth inhibition with fluconazole, primary screen, CaCi-2 strain, Alamar Blue fluorescence; C. albicans CaCi-2 (fluconazole-resistant clinical isolate) + fluconazole, 48 h; growth inhibition, % (concentration not given with the values); hit rate 0.57% among 300,000;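 active = most replicates above 75%; inconclusive = exactly half above 75%; inactive = most below 75%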;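 also: all wells also contain fluconazole at 8 µg/ml as a sub-toxic cotreatment; 0% = median of DMSO wells and 100% = median of geldanamycin control wells; wells of about 8 µL received 7.5 nL stock; the first replicate is given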
Ecoli rRNA inh: reduced GFP signal of wild-type E. coli, primary screen, bacterial rRNA inhibitor project, GFP/RFP fluorescence, OD600, single point; GFP signal change (wild-type ribosome), % (test concentration not listed); E. coli WT GFP vs humanized-ribosome RFP mutants, 24 h; hits give low values; DMSO median 0, no signal -100; AID 720706, 2013; hit rate 1.6% among 350,000;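 active = significant combined selectivity score with lowered wild-type GFP, culture density cut under 30%, mutant RFP and density less affected; inactive = any of these conditions unmet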; also: one replicate is shown; some compounds called inactive have numbers as strong as hits
A1 inh: caspase 3/7 activation in MEF A1-2A-BIM cells, primary screen, A1 inhibitor project, cell-based, luminescence, HTS. Caspase-Glo 3/7 luminescence, 3 h; percent of clofoctol response, vehicle zero. caspase activation, % (no concentration beside the values). hit rate 0.066% among 330,000. AID 2462, 2010;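 active = over half of replicate activation scores above 10%, or exactly half above 10 with the replicate mean above 10; inconclusive = replicate mean below 10 yet half the replicates above 10; inactive = over half of replicates below 10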;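 also: wells of about 30 µL received 50 nL stock; many hits fall short of the cut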
T cruzi repl: inhibitors of intracellular T. cruzi growth, primary screen, luminescence, NIH3T3 host cells; inhibition, % (test concentration not listed); T. cruzi beta-gal in NIH3T3, 90 h; AID 1885, 2009; hit rate 1.4% among 300,000;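 active = mean inhibition across valid replicates above about 55%, limit read from the data; inconclusive = mean below that limit but half or more replicates reach it; inactive = mean below it, under half of replicates reach it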;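 also: signal also drops with host cell toxicity which is not excluded here; 0% = plate median of DMSO wells and 100% = zero luminescence signal; higher percent means less beta-gal luminescence so fewer parasites; stock transfer was 50 nL into about 50 µL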
Beta apoptosis: inhibitors of cytokine-induced beta cell apoptosis, primary screen, luminescence | protection from apoptosis, % (test concentration not listed) | hit rate 0.8% among 300,000 | AID 435005, 2010 | INS-1E cytokine-induced death, ATP luminescence, 48 h; percent of positive-control rescue, neutral wells zero;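 active = all replicates at 75% or more, or half of them and the mean; inconclusive = half reach 75% but not the mean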;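 also: 0% = cytokine-treated negative control wells and 100% = positive control rescue; higher means more ATP so stronger rescue from cytokine killing; wells of about 40 µL received 100 nL stock; the first replicate is given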
Vif A3G: inhibitors of Vif binding to APOBEC3G peptide, primary screen, biochemical, TR-FRET, GST-Vif 1-94, biotin-A3G peptide, dose response retest (AID 1117319); Virion infectivity factor (Human immunodeficiency virus type 1 group M subtype B (isolate …; TR-FRET GST-Vif / biotin-A3G peptide binding; higher % means a stronger effect; test concentration not given here; strong numbers were not always called active; inhibition, %, or IC50 in µM where a hit was titrated; hit rate 0.57% among 260,000;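 active = above the screen mean plus three standard deviations and confirmed in dose response; inconclusive = results disagree or hit not tested in dose response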;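 also: Vif residues 1-94 fused to GST binding biotinylated APOBEC3G peptide 110-148; 0% = full assay without inhibitor and 100% = GST in place of GST-Vif; retest series ran down from 100 µM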
AF4-AF9 inh: inhibitors of AF4 peptide binding to AF9, primary screen, biochemical, AlphaScreen, biotin-AF4 peptide, FLAG-AF9, single point | Protein AF-9 (Homo sapiens), P42568 | hit rate 0.47% among 350,000 | inhibition, % at 10 µM;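 active = every replicate reaching a set inhibition limit, whatever the replicate mean, cut at about 25% in these data; inconclusive = mean inhibition reaches that limit but some replicates miss it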;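 also: 0% = plate neutral control median and 100% = total signal loss; the record names both 10 and 1 µM as test concentration; the first replicate is given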
Target sequence (P42568 whole entry, looked up): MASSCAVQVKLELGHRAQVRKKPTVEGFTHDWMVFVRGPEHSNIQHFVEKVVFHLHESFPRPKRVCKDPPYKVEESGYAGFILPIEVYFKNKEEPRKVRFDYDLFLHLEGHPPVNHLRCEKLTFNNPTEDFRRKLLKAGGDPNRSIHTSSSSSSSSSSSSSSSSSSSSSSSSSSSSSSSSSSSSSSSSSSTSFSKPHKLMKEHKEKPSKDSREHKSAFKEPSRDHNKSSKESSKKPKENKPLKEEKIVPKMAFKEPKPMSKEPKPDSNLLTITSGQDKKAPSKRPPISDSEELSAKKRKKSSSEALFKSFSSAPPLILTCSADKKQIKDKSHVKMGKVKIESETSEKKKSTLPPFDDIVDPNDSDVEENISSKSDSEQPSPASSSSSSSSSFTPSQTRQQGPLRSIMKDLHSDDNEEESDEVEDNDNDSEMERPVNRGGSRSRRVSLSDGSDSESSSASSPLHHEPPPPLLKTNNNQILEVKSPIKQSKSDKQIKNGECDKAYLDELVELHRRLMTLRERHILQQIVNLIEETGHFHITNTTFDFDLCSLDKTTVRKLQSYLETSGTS
RanGTP-Imp inh: inhibitors of RanGTP-importin-beta interaction, primary screen, biochemical, FRET, CFP-Ran, YFP-importin-beta, homogeneous | Ran GTPase (GTP-bound) - importin-beta complex | cell-free CFP-Ran/YFP-importin-beta FRET ratio | inhibition, % (no concentration beside the values) | hit rate 1.1% among 300,000;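 active = most replicates above 15%; inconclusive = exactly half above 15%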;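 also: 0% = DMSO wells and 100% = Ran loaded with GDP instead of GTP; wells of about 40 µL received 100 nL stock; the first replicate is given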
Ecoli rRNA inh OD600: also measured in Ecoli rRNA inh; calls as there; OD600 change, %; measured here: OD600 growth;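 optical density of the mix in the first replicate; 0 = DMSO median and -100 = no signal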
Ecoli rRNA inh RFP: second read-out of Ecoli rRNA inh, no call of its own (marks repeat the call); RFP signal change, %; measured here: RFP humanized mutant strains;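 first replicate; 0 = DMSO median and -100 = no signal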
The depositor's hits bear a star; ? = inconclusive; · = no result given. A portion of the library; rates above refer to the full screens.

SMILES | Calb FLC | Ecoli rRNA inh | Ecoli rRNA inh OD600 | Ecoli rRNA inh RFP | A1 inh | T cruzi repl | Beta apoptosis | Vif A3G | AF4-AF9 inh | RanGTP-Imp inh
O=C(Cc1ccccc1[N+](=O)[O-])Nc1ccc2c(c1)OCCO2 | 7 | 20 | 6 | -7.1 | -2.2 | -14 | 2 | 28% | -14 | -5.7
CCCc1cc(=O)n2nc(N3CCC(C(=O)Nc4cccc(C(C)=O)c4)CC3)sc2n1 | 3 | 5 | 12 | -1.9 | -0.2 | 11 | -3 | -2% | -4.3 | 3.0
CN1CCN(C(=S)c2ccc(OCC(=O)Nc3cccc(C(F)(F)F)c3)cc2)CC1 | -1 | -30 | -26 | 0.6 | 0.2 | 16 | -2 | -7% | · | -1.1
O=c1c2ccccc2nc(SCc2nc3ccccc3s2)n1Cc1ccco1 | 5 | · | · | · | -0.2 | 22 | 1 | -2% | · | 8.2
COc1ccc(OC)c(CNC(=O)C2CCCN(S(=O)(=O)N3CC(C)CC(C)C3)C2)c1 (stereo not given) | -4 | -4 | -2 | -3.6 | -0.4 | 25 | 4 | -7% | -0.9 | 0.3
NC(=O)C(c1ccccc1)C1CCCC1 (stereo not given) | 6 | · | · | · | 0.6 | -4 | · | 2% | · | -0.2
CCN(c1ccccc1)S(=O)(=O)c1cccc(C(=O)NCC(c2cccs2)N2CCOCC2)c1 (stereo not given) | 0 | -9 | -20 | -2.2 | 2.1 | 8 | -1 | 9% | -11 | 3.1
O=C(Nc1cccnc1)c1ccc2ccccc2c1O | 64 | -16 | -16 | -1.8 | -7.3 | -4 | 7 | · | 1.9 | 1.4
Cn1c(N)c(C(=O)COC(=O)CCCN2C(=O)c3ccccc3C2=O)c(=O)n(C)c1=O | 6 | · | · | · | -0.2 | -5 | -2 | -7% | 0.3 | 9.8
COc1ccc(/C=C/C(=O)Oc2ccc(/C=N/NC(=O)c3ccccc3)cc2)cc1OC | -13 | · | · | · | 0.6 | -8 | 2 | · | · | ?
Cc1cc(NC(=O)c2ccc3c(c2)OCCO3)ccc1NC(=O)c1ccco1 | 15 | 4 | 2 | -1.0 | -7.4 | -2 | -3 | · | -9.5 | 1.8
COc1ccc(CN(C)C(=O)c2ccc(NS(=O)(=O)c3ccc4[nH]c(=O)[nH]c4c3)cc2)c(OC)c1 | -6 | -5 | -8 | 0.6 | 0.3 | -14 | -1 | -2% | -4.5 | -4.0
CCN(CC)CCCC(C)NC1=NCCCCC1 (stereo not given) | -4 | · | · | · | 0.5 | -18 | -2 | 1% | · | ?
O=C(NCC1CCOCC1)C1CCC(=O)N(Cc2cccc(C(F)(F)F)c2)C1 (stereo not given) | -18 | 28 | 20 | 0.9 | 0.5 | -8 | -3 | · | -1.2 | -0.6
CCOC(=O)C1CCCN(c2c(NCCN3CCCCC3CC)c(=O)c2=O)C1 (stereo not given) | -11 | 0 | 12 | -0.4 | 1.1 | 1 | -2 | 1% | -3.1 | 5.1
O=C(Nc1ccccc1)c1ccc(NC(=O)c2cccs2)cc1 | -12 | 1 | 14 | 0.1 | 0.5 | 3 | -14 | · | -1.5 | -0.1
Cc1ccc(C(=O)OCc2cn3ccccc3n2)cc1 | 6 | · | · | · | -0.4 | -20 | -8 | >100µM* | · | -0.3
COc1ccc(-c2csc(NC3=NCCCCC3)n2)cc1 | 16 | 5 | 3 | -0.5 | 0.5 | -15 | 0 | -4% | 1.2 | 0.3
COc1ccc(C(=O)n2ncc(C#N)c2N)cc1 | -2 | 7 | 1 | 4.7 | · | -4 | · | -2% | -3.5 | 0.6
CC1(C)NC(=O)N(CC(=O)OCC(=O)Nc2cc(S(=O)(=O)N3CCCCC3)ccc2Cl)C1=O | -21 | · | · | · | 1.0 | -17 | -4 | -2% | · | -0.7

Marked active in Vif A3G, among the entries above:
structure	Ecoli rRNA inh	Ecoli rRNA inh OD600	Ecoli rRNA inh RFP	A1 inh	Vif A3G	AF4-AF9 inh	RanGTP-Imp inh
Cc1ccc(C(=O)OCc2cn3ccccc3n2)cc1	·	·	·	-0.4	>100µM*	·	-0.3

(listing goes on)
SMILES | Calb FLC | Ecoli rRNA inh | Ecoli rRNA inh OD600 | Ecoli rRNA inh RFP | A1 inh | T cruzi repl | Beta apoptosis | Vif A3G | AF4-AF9 inh | RanGTP-Imp inh
Nc1cc(=O)[nH]c(SCC(=O)N2N=C(c3ccc4ccccc4c3)CC2c2ccccc2)n1 (stereo not given) | 7 | 5 | 5 | 9.5 | -0.2 | -11 | 6 | -10% | 8.8 | 0.2
Cc1nc(-c2ccc(Cl)cc2)sc1C1(C)CC(c2ccc(OC(F)(F)F)cc2)=NO1 (stereo not given) | -19 | 10 | -10 | -9.6 | -0.3 | -6 | 2 | · | 1.1 | -1.0
CC(C)CC(=O)Nc1ccccc1N1CCCC1 | -5 | 12 | 10 | 1.4 | 0.0 | -4 | -13 | · | -71 | -2.6
CC(=O)Nc1ccc(S(=O)(=O)Nc2nnc(C3CCCCC3)s2)cc1 | 3 | -12 | -4 | -7.4 | -0.4 | -6 | -1 | 24% | · | 1.7
Cc1cc(=O)[nH]c(SCC(=O)Nc2nonc2C)n1 | -9 | 8 | 4 | 1.5 | -0.3 | -12 | · | · | -0.5 | -2.3
CCOCCCN1C(=O)CN(C2CCCCC2)C(=O)C1c1ccc(OC)c(OC)c1 (stereo not given) | ? | 16 | 9 | -0.1 | 0.4 | -8 | 1 | ? | 8.7 | ?
CCSCCNC(=O)c1cc(-n2cnnc2)ccc1Cl | 3 | · | · | · | 0.2 | -10 | -8 | -3% | · | 1.6
CN(CC(=O)Nc1ccc(Cl)cc1)C(=O)CCNC(=O)c1ccc(Cl)cc1 | · | 8 | 4 | 5.4 | 0.2 | · | 7 | -8% | -3.5 | ·
O=C(NCc1ccco1)c1cc(S(=O)(=O)N2CCCc3ccccc32)ccc1Cl | -7 | · | · | · | -0.5 | 12 | -1 | -2% | · | -2.0
CCOc1ccc(NC(=O)C(C)Sc2nnc(C)n2C)cc1 (stereo not given) | -3 | 5 | 10 | -1.8 | -0.3 | -10 | 0 | 3% | -0.6 | 5.4
COc1ccc(C)cc1N(C(=O)c1ccco1)C(C(=O)NC1CCCC1)c1ccc(N2CCOCC2)cc1 (stereo not given) | -3 | 3 | -2 | -0.9 | -0.9 | 12 | -5 | · | 3.8 | 1.0
COc1cccc(C(=O)COC(=O)C2CC(=O)N(c3ccc(Oc4ccccc4OC)cc3)C2)c1 (stereo not given) | -13 | 1 | -3 | 0.1 | 0.3 | -4 | -1 | 0% | -20 | 3.3
Cc1nc(NC(=O)COC(=O)C2CC2C)c(Cl)cc1Cl (stereo not given) | · | 5 | 2 | -0.7 | 1.0 | · | -4 | · | 1.8 | ·
CCCCC(=O)NC(N1CCCCC1)C(Cl)(Cl)Cl (stereo not given) | -3 | · | · | · | -2.3 | 24 | -5 | -4% | · | -1.4
COc1ccccc1-c1nc2n(n1)C(c1ccccc1Cl)C(C(N)=O)=C(C)N2 (stereo not given) | 8 | 4 | 6 | -1.9 | 0.0 | 1 | 0 | 3% | -3.6 | -1.6
O=C(Nc1nc(-c2ccc(-c3ccccc3)cc2)cs1)c1cc([N+](=O)[O-])ccc1N1CCOCC1 | -5 | 3 | 7 | -1.2 | -0.8 | 27 | 6 | 0% | -10 | 0.3
C#CCn1c(S(=O)(=O)Cc2ccc(F)cc2)nc(-c2ccccc2)c1-c1ccccc1 | 34 | · | · | · | 0.2 | 31 | 20 | 5% | · | ?
Cc1ccccc1Nc1c(-c2ccncc2)nc2ccc(Cl)cn12 | 0 | -16 | -13 | 11 | -0.5 | 36 | -20 | -10% | -2.1 | -0.7
Cc1ccc(C(=O)NCC(=O)Nc2ccc3c(c2)OCCO3)cc1 | · | 8 | 8 | 0.0 | 1.5 | 0 | -1 | 0% | 3.0 | 4.3
CC1(C)CC(=O)C2=C(C1)N(c1ccccc1)C(N)=C(C#N)C2c1cccnc1 (stereo not given) | -1 | · | · | · | 0.6 | 6 | -31 | 9% | · | 2.1
CCCOc1c(OC)cccc1C1CC(=O)Nc2cc(OC)c(OC)c(OC)c21 (stereo not given) | -1 | · | · | · | 1.4 | 10 | 3 | -2% | · | 9.7
O=C(CN1C(=O)NC2(CCCCC2)C1=O)NCc1cccs1 | -1 | 4 | 10 | -0.7 | 0.1 | -17 | -6 | · | -2.2 | 0.9
COc1nc(Nc2ccccc2F)nc(OC)n1 | -11 | 16 | 12 | 2.6 | -1.9 | -9 | 3 | · | 1.9 | -3.6
Cc1ccccc1-n1c(SCC(=O)Nc2ccc3c(c2)OCO3)nnc1-c1ccccn1 | 27 | · | · | · | 0.2 | 3 | · | -8% | · | -3.0
COc1ccccc1OCc1nnc(SCC(=O)NCc2ccco2)n1-c1ccccc1 | 4 | · | · | · | -0.2 | 6 | -1 | -4% | · | ?
Cc1cccn2c(=O)c3cc(C(=O)NCCc4ccccc4)c(=N)n(Cc4ccco4)c3nc12 | 12 | 14 | 2 | 8.8 | 0.0 | 53 | 15 | · | -7.6 | 74*
O=C(O)CCSC1CC(=O)N(c2ccccc2)C1=O (stereo not given) | -8 | 4 | 9 | 0.2 | -0.7 | -12 | · | · | -0.1 | 1.6
CCc1ccccc1OCC(=O)Nc1cccc(S(=O)(=O)NCc2ccco2)c1 | · | -51 | -75 | -10 | -0.3 | · | 0 | 2% | 6.5 | ·
Cc1ccc(C2=NN3C(C2)c2ccccc2OC32C(=O)Nc3ccccc32)cc1 (stereo not given) | -31 | · | · | · | -0.2 | 21 | -5 | 17% | · | 6.7
O=C1CCCCCC1C1(O)C(=O)Nc2ccccc21 (stereo not given) | -6 | · | · | · | 0.4 | -7 | -10 | 9% | · | 0.6
COc1ccc(-n2ncc3c2CC(C)(C)CC3NC(=O)CCc2c(C)nn(C)c2C)cc1 (stereo not given) | 1 | 0 | 4 | -2.2 | -2.4 | 12 | -4 | 6% | -5.7 | 0.2
CCCCOC(=O)C1=C(C)Nc2ncnn2C1c1ccc(OC)c(OC)c1OC (stereo not given) | ? | · | · | · | 1.1 | 3 | -7 | 24% | · | -2.5
CN1CCN(S(=O)(=O)c2ccc(N(C)Cc3c(F)cccc3Cl)nc2)CC1 | · | 7 | 15 | -1.0 | 0.7 | · | 0 | · | -5.8 | ·
CCOC(=O)CCSCC(=O)N1N=C(c2cccs2)CC1c1ccc(C)cc1 (stereo not given) | -4 | -23 | -19 | 3.3 | 0.9 | -11 | 1 | 18% | 9.5 | -1.8
